Screening results (PubChem BioAssay)
Tgondii IFNg = blocks Toxoplasma gondii growth in the presence of IFN-gamma; Toxoplasma gondii growth in IFN-gamma-treated host cells; stronger effect = lower value; reference of the scale not given here; activity change, negative = inhibition, %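 (about 20 µM by stock and volumes)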; 69,000 compounds, 3.8% hits;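 active = below -70%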;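 note: host cells are HeLa cells infected with Toxoplasma gondii; parasite growth read as luciferase light; one replicate is shown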
An asterisk follows results filed as active; i = inactive; & = joins results of further samples. Some of the compounds tested; count on the stated rates, not on these rows.

SMILES	Tgondii IFNg
O=C(CC1N=C2c3ccccc3N=C(SCc3cc(=O)n4cc(Cl)ccc4n3)N2C1=O)NCc1ccco1 (stereo not given)	2
COC(=O)c1cc(C)nc2c1c(=O)nc(SCc1nc(-c3cccc(Cl)c3)oc1C)n2C1CC1	i
CN(Cc1ccccn1)C(=O)c1n[nH]c2c1CN(Cc1ccco1)C2	23
COC(=O)c1cc(S(=O)(=O)N2CCOCC2)oc1C	-2
CCc1cccc(C)c1NC(=O)Cn1c(=O)cc(C(=O)N2CCOCC2)c2ccccc21	6
Cc1cnc(NCCCN2CCNC(=O)C2)nc1N(C)C	-2
CCO[C@@H]1CC[C@@H]2[C@H]1OCCN2C(=O)CC1C=CCC1 (stereo not given in full)	16
O=C(c1cn2c(n1)CSCC2)N1CCN(c2ccccn2)CC1	37
CNC(=O)c1cc(=O)n(CC(=O)Nc2ccc(OC)cc2OC)c2ccccc12	-2
CC(C)c1noc(CCC(=O)Nc2ccc(N3CCCC3)c3nonc23)n1	3

Copied from the list.
COC(=O)c1cc(S(=O)(=O)N2CCOCC2)oc1C in Tgondii IFNg has -2
CCO[C@@H]1CC[C@@H]2[C@H]1OCCN2C(=O)CC1C=CCC1 (stereo not given in full) in Tgondii IFNg has 16
CNC(=O)c1cc(=O)n(CC(=O)Nc2ccc(OC)cc2OC)c2ccccc12 in Tgondii IFNg has -2
CN(Cc1ccccn1)C(=O)c1n[nH]c2c1CN(Cc1ccco1)C2 in Tgondii IFNg has 23

Later entries
SMILES	Tgondii IFNg
O=C(COc1ccc2ccc(=O)oc2c1)c1ccccc1	27
C[C@@H]1CN([C@@H](C)CO)S(=O)(=O)c2ccc(C#CCC3CCCC3)cc2O[C@H]1CN(C)C(=O)c1cnccn1	-62
CCNC(=S)NCCc1c[nH]c2ccccc12	10
COc1ccc(Cl)cc1NC(=O)c1c(O)c2cccnc2n(-c2cccc(F)c2)c1=O	12
CCn1cc(C(=O)NCc2nc(C)cc(C(F)(F)F)n2)c(C)n1	5
CC(C)C(=O)N1CCN(Cc2cnn(C)c2)CC2(CCCC(=O)N2)C1 (stereo not given)	-3
CC1(C(=O)NCc2ccc(F)cc2F)CCN(C(=O)c2ccccc2F)CC1	-31
O=C(c1ccccn1)N1CC[C@H]2[C@@H]1CCN2c1ncccn1	-11
CC(C)CN1C(=O)C2(CC2C(=O)NC2CCC2)c2ccccc21 (stereo not given)	101
O=C(NCCCN1CCCC1=O)C1CCN(Cc2cc3ccccc3n2Cc2ccccc2)CC1	0
Cc1ccc(N2CCN(C(=O)c3csc(C(=O)NC4CC4)n3)CC2)cc1	-5
CCN1CCNC(=O)C1CC(=O)Nc1cc2c(C)cc(=O)oc2cc1C (stereo not given)	-1
Cn1c(=O)c2[nH]c(C3CCCC3)nc2n(C)c1=O	-22
COc1ccccc1CC(C)NC(=O)CC1C(=O)N(C)c2ccccc21 (stereo not given)	-1
CCn1c(=O)c(-c2nc(-c3cccc(OC)c3OC)no2)c(O)c2ccccc21	12
COc1ccc(N=Nc2c(N)n[nH]c2N)cc1	116
O=C(C[C@H]1CC[C@H]2[C@@H](COC[C@@H](O)CN2C(=O)c2ccccc2F)O1)NCc1ccc(Cl)c(Cl)c1	-48
Cc1oc(C2CCN(C(=O)Nc3cc(F)ccc3F)CC2)nc1C(=O)N1CCCC1	34
N[C@@H](Cc1c[nH]c2ccccc12)C(=O)N1CCC2(CC1)CC(CC(=O)O)c1ccccc1O2 (stereo not given in full)	-31
C[C@@H]1CN([C@H](C)CO)C(=O)c2cc(NS(C)(=O)=O)ccc2O[C@@H](C)CCCCO[C@@H]1CN(C)C(=O)Cc1ccccc1	175
Cc1noc(C)c1CN1CCCC(O)(CO)CC1 (stereo not given)	-21
O=C(CNC(=O)c1ccccc1F)c1ccc(Br)cc1	264
CCn1c(C2CCCN(C(=O)c3cnc(C)cn3)C2)nn(C)c1=O (stereo not given)	5
CN1CCOCC2(CCCN(C(=O)c3cc4ccccc4[nH]3)C2)C1 (stereo not given)	-26
CCN1c2ccccc2C(=O)NC12CCN(C(=O)Cc1ccc(OC)cc1)CC2	-53
CCNC(=O)[C@H]1CC[C@@](C)(C(=O)NCCc2cnc[nH]2)C1(C)C	45
O=C(c1cnc[nH]1)N1CCOc2c(O)cc(-c3csc4ccccc34)cc2C1	-39
[O-][n+]1cccc(CO)c1	9
CC(C)n1cnnc1CCNC(=O)c1ccc2cccnc2c1O	-11
CCOC(=O)N1CCN(C(=O)c2ccc(N3CCC(NCCc4ccncc4)CC3)cc2)CC1	6
COc1ccc2c(c1)C(NC(=O)c1cc(=O)n(C)c(=O)n1C)CC(C)(C)O2 (stereo not given)	80
C[C@H]1CCCCO[C@@H](CN(C)C(=O)Cc2ccccc2)[C@@H](C)CN([C@@H](C)CO)C(=O)c2cc(NS(C)(=O)=O)ccc2O1	15
COc1cc(C(=O)NC(C)(C)CC(C)(C)C)cc(OC)c1OC	-8
CCS(=O)(=O)N1CCC2(CC1)OC(=O)C(C)=C2C(=O)Nc1cc(C)ccc1C	42
CCc1noc(CNC(=O)CSCc2ccccc2Cl)n1	-18
COc1ccc2nc(N3CCCC3C(=O)NCCCc3ccccc3)nc(C)c2c1 (stereo not given)	12
Cc1nc(C(C)N(C)Cc2ccc(N(C)C)nc2)c(C)s1 (stereo not given)	-2
Cc1ncccc1OC1(C(=O)N2CC(N)C2)CCNCC1	10
O=C(c1ccco1)N1CCC2(CC1)Nc1ccc(Cl)cc1-n1cccc12	67
O=C(COc1nsnc1N1CCOCC1)N(Cc1ccncc1)C1CCCCC1	-11
O=C(NC1CCC1)[C@H]1C[C@@H]2CN(C(=O)Nc3ccc(Cl)cc3)C[C@H]1O2	-7
Cc1nc(COC[C@]23COC[C@H]2CN(C(=O)c2ccccn2)C3)cs1	10
C[C@@H]1CN([C@@H](C)CO)C(=O)c2cc(NC(=O)C3CCCCC3)ccc2O[C@@H]1CN(C)Cc1ccc2c(c1)OCO2	25
COc1cccc(-n2cc(CN(C)Cc3cc4ccccc4[nH]3)cn2)c1	13
CS(=O)(=O)NC1CCC2(CCC(=O)N2Cc2ccncc2)CC1 (stereo not given)	13
COC(=O)c1c(C)[nH]c(C)c1C(=O)c1ccccc1Cc1ccccc1	16&-2
O=C(Nc1cccc(-n2cccn2)c1)c1ccc(Cl)c(NCc2ccccn2)c1	46
Cc1ccc(C(=O)N2C[C@@H]3COC[C@@]3(Cc3nnc(C4CC4)o3)C2)cn1	2
CS(=O)(=O)NC1CC2(CCN(C(=O)c3cncnc3)C2)C1 (stereo not given)	6&147
C[C@@H]1CCCCO[C@@H](CN(C)Cc2ccc(C(F)(F)F)cc2)[C@@H](C)CN([C@@H](C)CO)C(=O)c2cc(NC(=O)Nc3cccc4ccccc34)ccc2O1	i
The list continues:
SMILES	Tgondii IFNg
NC(=S)c1ccc(-c2ccno2)s1	-24
CC(C)CNC(=O)c1cc2c(s1)CCN2Cc1cccnc1	-15
CCS(=O)(=O)N1CCC2(CC1)OC(C(=O)N(C)C)c1ccccc12 (stereo not given)	-46
N=C(N)N	19
O=C(Nc1ccc(F)cc1)N1[C@@H]2CNc3ccccc3[C@@H]2[C@@H]1CO	-4
COc1ccc(-c2ccccc2[C@@H]2[C@@H](C#N)N(C(=O)c3cccnc3)[C@@H]2CO)cc1	-11
OCc1cc(-c2cnc3ccccc3c2)ccc1F	107
Cc1ccc2nc(C)c3c(c2c1)OC(C(C)(Cl)Br)C3 (stereo not given)	19
CCC(NC(C)C)C(O)c1ccc(O)c(O)c1 (stereo not given)	47&3&9
CC(C)C1=NOC(C(=O)N(C)Cc2nncn2C(C)C)C1 (stereo not given)	2
COc1ccc(NC(=O)Cn2c(=O)cc(C(=O)N3CCCC3)c3ccccc32)cc1	6
CCc1ccc(S(=O)(=O)N2CCC3(CC2)Nc2cc(C)ccc2-n2cccc23)cc1	44
CCC(=O)Nc1ccc(C)cc1-c1cc(OC)c(OC)c(OC)c1	-27
Cc1cc(C)c(S(=O)(=O)N2CCC3(CC2)Nc2ccc(C)c(C)c2-n2cccc23)cc1C	-19
CCS(=O)(=O)N1CCOCC2(CCC(Cn3cncn3)O2)C1 (stereo not given)	-40
CCn1ncc(C(=O)NCCC(=O)Nc2ccc(C)cc2)c1C	-1
O=C(NCC1CCCO1)c1nc(-c2cn(Cc3ccccc3)cn2)n2ccccc12 (stereo not given)	1
O=C(O)Cc1csc(-c2ccccn2)n1	71
O=C(CCCn1cnc2ccccc2c1=O)NCCc1cnc[nH]1	229
COc1cccc(N2C(=O)[C@H]3C(C(=O)c4cnccn4)=NN[C@H]3C2=O)c1	-1

Part of the list above, as labelled records:
O=C(CCCn1cnc2ccccc2c1=O)NCCc1cnc[nH]1
- Tgondii IFNg: 229
CCS(=O)(=O)N1CCOCC2(CCC(Cn3cncn3)O2)C1 (stereo not given)
- Tgondii IFNg: -40
Cc1cc(C)c(S(=O)(=O)N2CCC3(CC2)Nc2ccc(C)c(C)c2-n2cccc23)cc1C
- Tgondii IFNg: -19
COc1cccc(N2C(=O)[C@H]3C(C(=O)c4cnccn4)=NN[C@H]3C2=O)c1
- Tgondii IFNg: -1

New compounds follow:
SMILES	Tgondii IFNg
CCOC(=O)c1cc(C)nc2c1c(=O)n(Cc1nc(-c3cc(C)ccc3C)oc1C)c(=O)n2C	14
COc1ccc(C(=O)N2C[C@@H]3[C@H](c4ccccc42)[C@@H](CO)N3C(=O)NC(C)C)cc1	10
Cc1ccc(SC2CCN(Cc3ccc(CO)o3)CC2)cc1	5
OCc1ccccc1CNCc1ccccc1	4
COCC1CN(C(=O)c2ccccc2F)Cc2cnn(CC3CC3)c21 (stereo not given)	-53
N#C[C@H]1[C@@H](c2ccc(C3=CCCCC3)cc2)[C@H](CO)N1S(=O)(=O)c1ccccc1	-44
CC(C)C1COC2(CCCN(Cc3csnn3)C2)C1 (stereo not given)	1
CN1C(=O)CCc2cc(NS(=O)(=O)c3ccc(Cl)c(Cl)c3)ccc21	-87*
CCCCc1ncc(-c2nccn2CCc2c(C)n[nH]c2C)[nH]1	38
C[C@H]1CN([C@@H](C)CO)C(=O)CCCn2nncc2CO[C@H]1CN(C)C(=O)Nc1ccnc(N2CCOCC2)c1	55
CO[C@@H]1CN(C)C(=O)c2cc(NS(C)(=O)=O)ccc2OC[C@H](C)N(Cc2cncnc2)C[C@@H]1C	114
COc1ccc(-c2nc3c(s2)CN(C(=O)Nc2ccccc2C)CC3)cc1OC	43
Cc1ccc(C(=O)N2CCc3c(CNc4ncccn4)cncc3C2)o1	20
Cc1ncnc2c1CCN(C(=O)NC1CCCC1)CC2	13
O=C(NC1CC1)c1ccnc(N2CCC3(CCCO3)CC2)c1	119
COCC(=O)N1CC(=O)N2[C@H](C1)[C@H](c1ccc(-c3ccccc3F)cc1)[C@@H]2CO	12
O=C(c1nc(-c2ccc(Cl)cc2)n2c1CCCCC2)N1CCOCC1	-1
Cc1occc1C(=O)N1CCc2ncnc(C3CCOC3)c2CC1 (stereo not given)	-33
CN(CCC#N)C(=O)c1cc2cccnc2n(Cc2ccc(F)cc2)c1=O	42
COCCN1CC2(CCN(Cc3cnc(C)nc3)CC2)CC1=O	-4
Cc1ccc2[nH]cc(CCNC(=O)c3c(-c4ccccn4)noc3C)c2c1	-28
CC=Cc1ccc2n(c1=O)C[C@@H]1[C@@H](CO)[C@H](C(=O)N[C@@H](C)c3ccccc3)[C@H]2N1Cc1cncnc1 (mixture of isomers)	3
Cc1ccc(CSc2ssc(=S)c2-c2ccccc2)cc1	48
COc1ccc(NC(=O)c2cncc(NS(=O)(=O)c3ccc(Br)cc3)c2)cc1OC	49
Cc1nc(-c2ccc(F)cc2)sc1CCNC(=O)c1ccco1	-17
COc1ccc2c(c1)NC1(CCN(S(=O)(=O)c3c(C)cc(C)cc3C)CC1)c1cccn1-2	-35
CO[C@H]1C[C@H](O[C@H]2[C@H](C)[C@@H](OC3O[C@H](C)C[C@H](N(C)C)[C@H]3OC(C)=O)[C@@H](C)C[C@]3(CO3)C(=O)[C@H](C)[C@@H](OC(C)=O)[C@@H](C)[C@@H](C)OC(=O)[C@@H]2C)O[C@@H](C)[C@@H]1OC(C)=O (stereo not given in full)	9
O=c1c(Cl)c(N2CCOCC2)cnn1-c1cnc2ccccc2n1	98
CCc1nc([C@H]2CN(C)C[C@@H]2C(=O)N2Cc3nc(C)n(C)c(=O)c3C2)c(C)[nH]1	-50
N#C[C@H]1[C@@H](c2ccccc2-c2ccccc2F)[C@H](CO)N1C(=O)c1ccccn1	22

Pulled by compound from the list above:
SMILES	Tgondii IFNg
COc1ccc2c(c1)NC1(CCN(S(=O)(=O)c3c(C)cc(C)cc3C)CC1)c1cccn1-2	-35
CO[C@H]1C[C@H](O[C@H]2[C@H](C)[C@@H](OC3O[C@H](C)C[C@H](N(C)C)[C@H]3OC(C)=O)[C@@H](C)C[C@]3(CO3)C(=O)[C@H](C)[C@@H](OC(C)=O)[C@@H](C)[C@@H](C)OC(=O)[C@@H]2C)O[C@@H](C)[C@@H]1OC(C)=O (stereo not given in full)	9
N#C[C@H]1[C@@H](c2ccccc2-c2ccccc2F)[C@H](CO)N1C(=O)c1ccccn1	22
COc1ccc(NC(=O)c2cncc(NS(=O)(=O)c3ccc(Br)cc3)c2)cc1OC	49

(more compounds)
SMILES	Tgondii IFNg
COc1ccc(NC(=O)c2c(O)c3cccnc3n(-c3cccc(F)c3)c2=O)cc1	144
CCS(=O)(=O)N1CCC2(CC1)OC(=O)C(C)=C2C(=O)Nc1ccccc1Cl	38
COCCN(C)c1nc(C2CCN(Cc3ccco3)CC2)cc2c1ncn2C(C)C	12
O=C(Nc1ccc(Cl)cc1)N1CCC(c2nc3ccc(Cl)cc3[nH]2)CC1	6
COC(=O)[C@@H](NC(=O)c1cnc(N(C)C)nc1C)C1CC1	3
Cc1cccc(NC(=O)CC(=O)N(C)Cc2nccn2Cc2ccccc2)c1C	35
O=C(O)c1nccnc1C(=O)NCCSCc1c(F)cccc1Cl	28
CC(C)c1ccc(NC2CCCN(c3ncccn3)C2)cc1 (stereo not given)	11
CO[C@@H]1CN(C)C(=O)c2ccc(NC(C)=O)cc2OC[C@H](C)N(Cc2cccc(F)c2)C[C@H]1C	213
